Calb biofilm kill: mixtures killing C. albicans biofilm; C. albicans biofilm persisters + clotrimazole, fluorescence viability; primary screen in compound mixtures of four per well; inhibition, % at 7.6 µM; 120,000 tested, 0.02% active;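 active means inhibition above 30.3% in the primary screen of four-compound pools, then above 30% when the compound was retested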;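 further: compounds exposed to preformed 24 h biofilms for 48 h; the number belongs to the whole pool; some results filed as inactive read as strong as hits; inactives centre near 12; 0% = biofilm with clotrimazole alone and 100% = kill control; retested singly at about 60 µM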
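Incubation: 24 h biofilm formation, then 48 h compound exposure, 37 °C | Material: C. albicans biofilms | Buffer or medium: RPMI/MOPS medium, pH 7.0 | Measured by: 2-h Alamar Blue fluorescence, 535/590 nm excitation/emission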
* marks the source's active call; other numbers are inactive results.

SMILES	Calb biofilm kill
CC(C)NC(=O)C1CCN(c2ccc(S(=O)(=O)N3CCOCC3)cc2Cl)CC1	7
C/C(=N/NC(=O)C1CC1(c1ccccc1)c1ccccc1)c1ccco1 (stereo unspecified)	11
CCCOP(=O)(c1ccccc1)c1ccccc1	4
Cc1ccccc1C(=O)NNC(=O)CN1C(=O)c2ccccc2C1=O	9
Nc1c(C(=O)Nc2ccccc2)c2nc3ccccc3nc2n1-c1ccc(O)cc1	24
COc1ccc(-c2[nH]ncc2CNCC(C)(C)N2CCOCC2)cc1F	11
Cc1ccc2c(c1)sc1ncc(NC(=O)c3ccc(F)cc3)c(=O)n12	18
CC(C)(C)c1ccc(S(=O)(=O)N2CCSC2)cc1	5
COc1ccc(C(=O)NC(=S)NNC(=O)c2ccc(NC(=O)C(C)C)cc2)cc1	20
O=C(N/N=C/c1ccc(OC(=O)c2ccco2)cc1)c1ccccn1	14
Cc1noc(C)c1C(=O)OCC(=O)Nc1ccccc1C(=O)NC(C)c1ccccc1 (stereo unspecified)	6
O=C(NNC(=S)NCCCN1CCOCC1)c1ccncc1	11
CCCCN(C(=O)/C=C/c1ccco1)c1c(N)n(Cc2ccccc2)c(=O)[nH]c1=O	2
CCC(COC(C)=O)Nc1nc2c([nH]1)c(=O)n(C)c(=O)n2C (stereo unspecified)	22
O=C(O)/C(=C\c1ccccc1Cl)c1ccc(S(=O)(=O)N2CCCCC2)s1	10
Cc1ccc(C)c(C(=O)N(C)CC(=O)Nc2ccccc2C(F)(F)F)c1	13
CCCc1nc(NCc2ccc3c(c2)OCO3)c2nnn(Cc3ccccc3Cl)c2n1	10
O=C(/C=C1\SC(=O)N(CC(=O)Nc2ccc(Cl)cc2)C1=O)Nc1ccc(F)cc1	8
O=C(CCc1nnc(CCCCc2ccccc2)o1)NC1CCCC1	22
CCN(CC)c1ccc(/C=C(\C#N)C(N)=S)cc1	33
CCO[C@@H]1OC(C(=O)NCc2nc3ccccc3[nH]2)=C[C@H](c2ccccc2)[C@H]1CCCO	11
COC(=O)C(C(=O)OC)c1ncccc1[N+](=O)[O-]	27
CC(=O)NCc1ccc(S(=O)(=O)N/N=C/c2ccc(Br)cc2)cc1	23
Cc1ccc(NC(=O)CSc2nc3ccccc3c(=O)n2CCCN2CCCCC2)cc1Cl	16
N#C/C(=C\c1cccc(O)c1)c1nc2ccccc2o1	34
Cc1cc(NS(=O)(=O)c2ccc(NC(=O)c3cc4c(=O)n5ccccc5nc4s3)cc2)nc(C)n1	16
O=C(CN1CCS(=O)(=O)CC1)NNC(=O)C1CCCCC1	1
O=C(Sc1ccc(Cl)cc1)c1cccc(Cn2cc(C(F)(F)F)ccc2=O)c1	20
O=C(Nc1ccc(F)cc1)Nc1csc2ccccc12	31
O=C(NCc1ccc(F)cc1)C(=O)NCC1OCCN1S(=O)(=O)c1cccs1 (stereo unspecified)	19
Cc1cc(C)nc(N/N=C/c2cn[nH]c2-c2ccc(F)cc2)n1	21
CCOC(=O)c1c(C)oc2c1c(C=NCCC(=O)O)c(O)c1ccccc12	5
COc1ccc(CCNC(=O)COc2ccc(N(C)S(=O)(=O)c3ccc(C)cc3)cc2)cc1OC	14
COCCCNS(=O)(=O)c1ccc(Cl)c(C(F)(F)F)c1	9
CCN1CCN(C2CC(=O)NC2=O)CC1 (stereo unspecified)	18
S=C(Nc1ccc(Oc2ccccc2)cc1)NC1CCCC1	13

Filtered by structure: the entries above with two or more sulfur atoms.
SMILES	Calb biofilm kill
CC(C)(C)c1ccc(S(=O)(=O)N2CCSC2)cc1	5
O=C(O)/C(=C\c1ccccc1Cl)c1ccc(S(=O)(=O)N2CCCCC2)s1	10
Cc1cc(NS(=O)(=O)c2ccc(NC(=O)c3cc4c(=O)n5ccccc5nc4s3)cc2)nc(C)n1	16
O=C(NCc1ccc(F)cc1)C(=O)NCC1OCCN1S(=O)(=O)c1cccs1 (stereo unspecified)	19

3 consecutive compounds out of the list so far:
SMILES	Calb biofilm kill
N#C/C(=C\c1cccc(O)c1)c1nc2ccccc2o1	34
Cc1cc(NS(=O)(=O)c2ccc(NC(=O)c3cc4c(=O)n5ccccc5nc4s3)cc2)nc(C)n1	16
O=C(CN1CCS(=O)(=O)CC1)NNC(=O)C1CCCCC1	1

(more compounds)
SMILES	Calb biofilm kill
Cc1cccc(COCCN2CCN(S(=O)(=O)c3ccccc3)CCC2=O)c1	9
CNC(=O)C1CC(=O)N(CCc2ccc(OC)cc2)C(=Nc2ccc(OC)cc2)S1 (stereo unspecified)	12
CCc1ccc(CN(C)CC(=O)Nc2ccccc2[N+](=O)[O-])cc1	20
COc1ccc(CC(NC(C)=O)C(=O)NC2CCN(c3c4c(nc5ncnn35)CCC4)CC2)cc1OC (stereo unspecified)	9
CNS(=O)(=O)c1ccc(N2CCCC2)c([N+](=O)[O-])c1	14
CCC(C)(C)NC(=O)COc1ccc(C(=O)c2ccccc2)cc1	16
Cc1nnc(SCC(=O)NC(C)(C)C)n1C1CCCCC1	13
Nc1nc(-c2ccco2)nn1C(=O)c1ccc(F)cc1	12
COC(=O)[C@@H]1C[C@@]2(O)[C@H](O)[C@H](O)[C@H](O)C[C@H]2N1Cc1cccc2ccccc12	16
N#C/C(=C(/O)c1ccc([N+](=O)[O-])cc1)c1nc2ccccc2[nH]1	21
COc1ccc(N2CCN(C(=O)CNS(=O)(=O)c3ccc(C)cc3)CC2)cc1	22
Cc1ccc(-c2csc3ncnc(-n4nnc5ccccc54)c23)cc1C	8
FC(F)(F)c1cccc(NC(=S)N(CCCN2CCCC2)Cc2cccn2Cc2ccc(Cl)cc2)c1	23
CC1(C)OC(=O)C(=NNc2ccccc2)C(=O)O1	10
CCOCC(=O)Nc1cc(C(=O)OC)cc(C(=O)OC)c1	12
COC(=O)c1ccc(SCC(=O)NC2CCCC2)c([N+](=O)[O-])c1	19
Cc1ccc(Cl)cc1NC1=NC(=S)N(C(C)C)C12CCCCC2	11
CCc1ccc(Oc2cc(C)nc(N)n2)cc1	5
COc1ccc(CC(NC(C)=O)C(=O)NC2CCN(c3c(Cc4ccccc4)c(C)nc4ncnn34)CC2)cc1OC (stereo unspecified)	20
Cc1onc(-c2c(Cl)cccc2Cl)c1C(=O)NNc1ccccc1	4
O=C(COc1ccccc1)Nc1nnc(-c2ccco2)o1	0
O=C(N/N=C/C(Cl)=C/c1ccccc1)c1ccccn1	12
C/C=C(\C)C(=O)N[C@@H](C)CN1C2=NC[C@H](C(C)C)N2C[C@H]1Cc1ccc(OC)cc1	19
COc1ccc2[nH]cc(CCNS(=O)(=O)c3ccccc3)c2c1	-4
Cc1oc(-c2ccccc2)nc1CSc1nc2c(c(=O)[nH]1)CCC2	7
NC(=O)c1ccccc1NC(=S)NC(=O)CCc1ccccc1	14
CC[n+]1ccc(C(=O)NCc2ccccc2)cc1	7
COC(=O)c1ccc(S(=O)(=O)N2CCCN(Cc3cccc(Br)c3F)CC2)n1C	19
O=S(=O)(NCC1NCCc2ccccc21)c1ccccc1 (stereo unspecified)	17
CC(C)(C)C(=O)N1CCN(c2ccc([N+](=O)[O-])cc2-n2cccc2)CC1	16
N#CCC(=O)Nc1ccc(C(=O)NCC(c2ccco2)N2CCCCC2)cc1 (stereo unspecified)	19
CCOC(=O)c1c(NC(=O)COC(=O)c2cc(OC)c(OC)cc2[N+](=O)[O-])sc(C)c1C	12
S=c1[nH]nc(/C=C/c2ccccc2)o1	3
O=C(Oc1cccc2ccccc12)c1cc(Cl)nc2ccccc12	9
Cc1cc(C)n2nc(CC#N)c(C#N)c2n1	13
Cn1nccc1C(=O)N1CCN(c2ncccn2)CC1	20

Given with bars between the fields: entries from further up
molecule | Calb biofilm kill
Cc1cc(C)n2nc(CC#N)c(C#N)c2n1 | 13
CC(C)(C)C(=O)N1CCN(c2ccc([N+](=O)[O-])cc2-n2cccc2)CC1 | 16

More results:
SMILES	Calb biofilm kill
COC(=O)c1sc(NC(=O)c2c(OC)cccc2OC)c(C#N)c1C	17
S=C(NCCN1CCOCC1)Nc1ccc(-c2nc3ccccc3[nH]2)cc1	15
Brc1ccc(-c2ccc(/C=N/Nc3nc(N4CCOCC4)nc(N4CCOCC4)n3)o2)cc1	11
COCCCNC(=O)CNC(=S)N(Cc1ccccc1)Cc1cccnc1	10
CCCN1CNC(=S)N(Cc2ccccc2)C1	10
S=C(Nc1ccc(Nc2ccccc2)cc1)NN1CCOCC1	22
CC(=O)c1c(C(=O)O)[nH]c(C(=O)O)c1C	16
COc1ccc(-c2noc(-c3ccoc3C)n2)cc1	10
CCN(CC(=O)Nc1ccccc1OC)CC(=O)Nc1ccccc1C(F)(F)F	16
Cc1ccc(S(=O)(=O)N(C)C)cc1NC(=O)CN1C(=O)NC(Cc2c[nH]c3ccccc23)C1=O (stereo unspecified)	13
O=C(COC(=O)c1ccc(F)cc1)NCCc1ccc(F)cc1	3
Cc1ccc(C(c2nnnn2CC2CCCO2)N2CCN(C)CC2)cc1 (stereo unspecified)	12
COc1ccc(S(=O)(=O)N(C)C)cc1NCC(=O)Nc1ccc(Br)cc1F	13
CCOc1ccc(NC(=O)c2cccnc2Cl)c([N+](=O)[O-])c1	11
Cc1nn2c3ccccc3n(C)c2nc1=O	12
COCC(C)NC(=S)NC(=O)c1cc(S(=O)(=O)N2CCOCC2)ccc1C (stereo unspecified)	33
CC(C)=CCN1CCN(Cc2cccn2-c2nccs2)CC1CCO (stereo unspecified)	54
CC(C)Cc1cc(CN2CCCC(CO)(Cc3cccc(Cl)c3)C2)[nH]n1 (stereo unspecified)	-5
Cc1[nH]c2ccccc2c1C(=O)CSc1ccc(F)cc1	9
COC(=O)c1ccccc1NC(=O)COC(=O)/C=C/c1ccco1	6
CCc1ccccc1NC(=O)C1CCN(C(=O)c2ccc([N+](=O)[O-])cc2)CC1	4
CCOn1c(=O)c(-c2cccc3ccccc23)[n+]([O-])c2ccccc21	10
Cc1cccc(N(C(=O)c2csnn2)C(C(=O)NC(C)(C)C)c2cccnc2)c1 (stereo unspecified)	3
CCOC(=O)C(=O)N/N=C(/c1ccccc1)c1ccc(OC)cc1	7
CC(=O)NS(=O)(=O)c1ccc(N2C(=O)c3ccccc3C2=O)cc1	8
C/C(=N\NC(=O)c1ccc(CSc2cccc3cccnc23)cc1)C1CCCCC1	6
COc1ccc(N(CC(=O)NCc2ccco2)S(=O)(=O)c2ccc(C)cc2)cc1	-1
Nc1ccc2nc(SCC(=O)N3CCN(c4ccccc4)CC3)sc2c1	26
O=C(NCc1ccc(-c2csnn2)cc1)c1cc(Cl)cc(Cl)c1	6
N/C(=N\OC(=O)C1CC1)c1ccc([N+](=O)[O-])s1	13
COc1ccc(CN(C(=O)/C=C/c2ccccc2Cl)C2CCS(=O)(=O)C2)cc1 (stereo unspecified)	9
Cc1cccc(-n2c(=S)[nH]c3c(oc4ccccc43)c2=O)c1	7
Cc1c(-c2ccccc2)[n+](=O)c2c(n1[O-])CCCCC2	10
Cc1cc(C(=O)N/N=C/c2cccnc2)cs1	17
Cc1cccc(OC(=O)c2sc3ncn(C)c(=O)c3c2C)c1	18
O=C(CNCCC1=CCCCC1)Nc1ccccc1N1CCCCCC1	12

A different layout for four compounds above:
Cc1c(-c2ccccc2)[n+](=O)c2c(n1[O-])CCCCC2
- Calb biofilm kill = 10
N/C(=N\OC(=O)C1CC1)c1ccc([N+](=O)[O-])s1
- Calb biofilm kill = 13
CC(=O)NS(=O)(=O)c1ccc(N2C(=O)c3ccccc3C2=O)cc1
- Calb biofilm kill = 8
COc1ccc(N(CC(=O)NCc2ccco2)S(=O)(=O)c2ccc(C)cc2)cc1
- Calb biofilm kill = -1

The listing continues:
SMILES	Calb biofilm kill
COc1ccc(N/N=C(/C(C)=O)N2CCCc3ccccc32)cc1	23
COc1cccc(-c2ccc(=O)n(CC(=O)Nc3ccc(S(=O)(=O)NCC(C)C)cc3)n2)c1	20
O=[N+]([O-])c1cc(C(F)(F)F)ccc1Sc1ccccn1	10
Cc1ccc(-n2cc(CNCCCn3cccn3)c(-c3cccc(C)c3)n2)cc1	27
Cc1ccc(CNC(=O)Cn2c(=O)c3sccc3n(Cc3ccc([N+](=O)[O-])cc3)c2=O)cc1	23
Cc1nnc(N2CCOCC2)c2nn(-c3ccccc3)c(C)c12	18
Cc1ccccc1-c1nc(CN2CCCC2c2ccc(F)cc2)c(C)o1 (stereo unspecified)	11
Cc1cc(C(=O)CN2C(=O)C(=O)N(Cc3ccccc3)C2=O)c(C)n1-c1ccc2c(c1)OCCO2	2
COCCNC(=S)N=Nc1c(O)[nH]c2c(C)cc(C)cc12	6
O=C(Nc1nc2ccsc2c(=O)s1)c1ccc(Cl)cc1	20
CN(C)CCCN(Cc1ccccc1)C(=S)Nc1ccc(F)c(Cl)c1	0
CCN(CC)S(=O)(=O)N1CCC(C(=O)NCCC2=CCCCC2)CC1	17
COC(=O)C1=NN(c2cccc(C)c2)C2C(=O)N(c3ccccc3OC)C(=O)C12 (stereo unspecified)	17
Nc1ncnc(Nc2ccccn2)c1[N+](=O)[O-]	-5
COC(=O)[C@H](CCSC)NC(=O)NC1CC1	18
Cc1cccc2cc(CN(Cc3cccs3)C(=S)NCC3CCCO3)c(=O)[nH]c12 (stereo unspecified)	14
Cc1cc(NC(=O)CN2CCCC(C)C2)no1 (stereo unspecified)	-5
NS(=O)(=O)c1ccc(NNC(=O)c2ccccc2C(=O)O)cc1	7
COc1cccc(CC2(CO)CCCN(C/C=C/c3ccccc3OC)C2)c1 (stereo unspecified)	9
O=[N+]([O-])c1cccc(NC(=S)N2CCc3ccccc3C2)c1	-3
O=C(Nc1ccc(F)c([N+](=O)[O-])c1)C1CC(=O)N(Cc2ccccc2)C1 (stereo unspecified)	3

High-throughput results as filed in PubChem BioAssay.

The list is partial; count on the stated rates, not on these rows.
